Screening data: PubChem, ICCB-Longwood Screening Facility, Harvard Medical School
CapD inh: inhibitors of Bacillus anthracis CapD enzyme; purified CapD enzyme, fluorescence intensity read-out; hits give low values; some hits fall short of the stated cut; z-score (no concentration beside the values); hit rate 0.23% among 140,000;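 active = z-score under -4 in either of two replicates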;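 also: stock transfer was 100 nL into about 40 µL; score is relative to mean and spread of the plate; one replicate is shown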
AID504770: E. coli YBA685 growth inhibition, screen for V. cholerae RctB inhibitors | hit rate 0.27% among 130,000 | E. coli YBA685 rctB-dependent plasmid, OD600 growth, 3 h; hits give low values | z-score (concentration not given with the values) | AID 504770;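 active = z-score under -2 on both plates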;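 also: wells of about 30 µL received 100 nL stock; score is relative to mean and SD of the test wells; the first replicate is given; strong numbers were not always called active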
Active calls of the source: *. These rows are one share of the data. The share of hits here may be higher or lower than overall.

CC1CC(C)(C)CC2(C1)NC(=O)N(Cc1cccc(S(=O)(=O)N(C)C)c1)C2=O (configuration not stated) was read as AID504770 0.4.
`Cc1cc(-c2ccc(/C=C3\SC(=S)N(CC(=O)O)C3=O)o2)ccc1[N+](=O)[O-]` gave CapD inh -0.93.
For Cc1nc(N)nc(N/N=C/c2ccccc2O)n1 the results were CapD inh -1.4.
For O=C1CC(c2ccccc2C(F)(F)F)c2c(ccc3ccccc23)N1 (configuration not stated) the results were CapD inh 0.56.
For COc1cc(C2Nc3ccc4ccccc4c3C3=C2C(=O)CC(C)(C)C3)ccc1OC(=O)c1cc(F)c(F)cc1Cl (configuration not stated) the results were CapD inh 9.1.
For Cc1cc(=O)n(CCO)c(=O)[nH]1 the results were CapD inh 0.96 and AID504770 -0.4.
CCC(CO)NC(=S)Nc1cc(C(F)(F)F)cc(C(F)(F)F)c1 (configuration not stated) was read as CapD inh 0.23 and AID504770 -0.8.
For C=C(c1ccccc1)c1ccc(OC)cc1 the results were CapD inh -0.41.
For Cc1ccnc(-n2c(-c3ccccc3)nc3ccccc3c2=O)c1 the results were CapD inh -0.44 and AID504770 0.15.
C=CCOc1nc(F)c(Cl)c2c1Oc1cc(Br)c(Br)cc1O2 was read as CapD inh 5.2 and AID504770 -0.45.
CC(C)N(Cc1ccccc1)C(=S)NCCN1CCOCC1 was read as AID504770 -1.1.
For COc1ccc(C2C3=C(CCCC3=O)OC3=C2C(=O)CCC3)cc1OC the results were CapD inh 0.18.
`O=C(Nc1c(-c2ccccc2)nc2ccc(Cl)cn12)c1cccs1` gave CapD inh 0.24.
COc1ccc(-c2nc(CSc3nc(C)c(C)n3C3CCCC3)cs2)cc1OC was read as AID504770 -0.35.
Screening CCOC(=O)N1CCN(C(=O)c2sc3nc(-c4ccc(F)cc4)cn3c2C)CC1 returned AID504770 1.2.
CC1=C(C#N)C(c2cccnc2)C2=C(CC(c3ccc(Cl)cc3)CC2=O)N1 (configuration not stated) was read as CapD inh 75 and AID504770 -0.35.
Screening CCCc1nc2c(o1)NC(N)=C(C#N)C2c1ccc(OC(C)C)c(OC)c1 (configuration not stated) returned CapD inh -0.36 and AID504770 0.55.
For Cc1csc(SCC(=O)NN2C(=O)NC3(CCCCC3)C2=O)n1 the results were AID504770 -0.2.
`CCNC(=S)Nc1ccc(NC(=S)NCC)cc1` gave AID504770 0.2.
`COc1ccc(C(=O)ON=C2CCN(C)CC2)cc1` gave CapD inh -0.53 and AID504770 1.1.
Screening O=C(c1ccco1)N(O)c1ccccc1 returned CapD inh -0.09 and AID504770 -1.1.
For C=CCc1cc(C(=O)N2CCCCC2)ccc1O the results were CapD inh 0.41 and AID504770 -0.2.
For O=C(CCc1nc2cccnc2n1Cc1cccs1)Nc1cccc(Br)c1 the results were CapD inh 3.7 and AID504770 -0.05.
`COc1cc([C@H]2[C@H](C(=O)C(C)(C)C)N3C=Cc4ccccc4[C@H]3C2(C#N)C#N)cc(OC)c1OC` gave CapD inh 7.2.
CCOC(=O)CC(=O)Nc1c(C)csc1C(=O)OC was read as CapD inh 0.51.
c1ccc(CCNc2nc3ccccc3s2)cc1 was read as CapD inh -0.78 and AID504770 -1.1.
`Cc1cc(NC(=O)CSc2nc3ccsc3c(=O)n2CCCC(=O)NCc2ccc3c(c2)OCO3)n[nH]1` gave CapD inh 0.49 and AID504770 0.35.
Screening Cc1cc(C2=NNC(=Nc3ccccc3)SC2)c(C)n1Cc1ccco1 returned AID504770 0.65.
CC(C)NC(=O)N1CC2CCCN2c2ccccc21 (configuration not stated) was read as CapD inh 0.13 and AID504770 -0.25.
For CC(C)C(c1nnnn1C1CCCC1)N1CCOCC1 (configuration not stated) the results were AID504770 -0.05.
COc1ccc(CN2C(=O)C(=O)N(Cc3ccccc3C)C2=O)cc1OC was read as CapD inh -0.27.
For CCN(CC)C(=O)CSc1nnc(COc2cccc(OC)c2)n1CC the results were AID504770 -0.8.
Screening CCOC(=O)CC(=O)CSc1nc2sc(C(=O)OCC)c(C)c2c(=O)n1Cc1ccccc1OC returned CapD inh 5.4.
O=C(O)c1ccc2c(c1)-c1ccccc1C2 was read as AID504770 0.
CCCCCCSc1nnc2c(n1)[nH]c1ccccc12 was read as CapD inh 0.1.
`Cc1ccc(-c2nc(N)s[n+]2-c2ccccc2)cc1` gave CapD inh -0.7 and AID504770 -2.4*.
CCOc1ccc(CCNC(=O)c2nnc(CS(=O)(=O)c3ccccc3)o2)cc1OCC was read as CapD inh -1.3 and AID504770 1.5.
Screening Cn1c(=O)n(Cc2cccc(C(F)(F)F)c2)c(=O)c2c1ncn2Cc1ccccc1 returned CapD inh -0.085.
Screening COc1ccc2c(c1)C(=NN)c1cc(OC)ccc1-2 returned CapD inh -0.52 and AID504770 1.2.
Screening Cc1ccc(CNC(=O)Cn2ccn(Cc3ccccc3)c(=O)c2=O)cc1 returned CapD inh 3.4 and AID504770 1.6.
COc1ccc(C2=NN(c3ccccc3)C(=O)/C2=C\c2cc(OC)c(OC)cc2OC)cc1 was read as CapD inh -0.24.
Screening NC(N)=N/N=C/c1ccco1 returned AID504770 -0.55.
Screening COc1cc(/C=C2\N=C(SC)SC2=O)cc(OC)c1OC(C)=O returned CapD inh 0.095 and AID504770 -1.2.
`N/C(=N\OC(=O)C(Cl)Cl)c1ccc(OCc2ccccc2)cc1` gave CapD inh -1.2.
Screening Cc1cc(C)cc(NC(=O)N2CCC(CN3CCCCC3)CC2)c1 returned CapD inh -0.18 and AID504770 -1.1.

The last two entries of the part above are carried over, then new ones follow.
`N/C(=N\OC(=O)C(Cl)Cl)c1ccc(OCc2ccccc2)cc1` gave CapD inh -1.2.
Screening Cc1cc(C)cc(NC(=O)N2CCC(CN3CCCCC3)CC2)c1 returned CapD inh -0.18 and AID504770 -1.1.
Screening O=S(=O)(/C=C/c1ccccc1)NC1CCCCC1 returned AID504770 0.7.
N#Cc1ccc(CSCC(=O)NN=C2CCCC2)cc1 was read as AID504770 -1.4.
`COc1ccc(C(CNc2ncnc3sccc23)N2CCCC2)cc1` (configuration not stated) gave AID504770 0.35.
For CC1(C)OC2OC(C(=O)Nc3ccc(Cl)c(Cl)c3)C3OC(C)(C)OC3C2O1 (configuration not stated) the results were CapD inh -0.56.
Screening CN(C)c1ccc(/C=N/NC(=O)c2cc3ccccc3s2)c2ccccc12 returned CapD inh 0.75.
Screening CN(NC(=S)Nc1ccccc1)c1ccc(Cl)cc1 returned CapD inh -0.22 and AID504770 -1.
O=C(NC1CCCCC1O)c1ccccc1C(F)(F)F (configuration not stated) was read as AID504770 -1.2.
Screening c1ccc(-c2nn3c(C4COc5ccccc5O4)nnc3s2)nc1 (configuration not stated) returned CapD inh 0.55 and AID504770 -0.9.
CCNC(=O)N1CCN(C(c2ccccc2)c2nc(OC)cc(OC)n2)CC1 (configuration not stated) was read as CapD inh 0.11.
Screening Cc1c(C(=O)N2CCC(C)CC2)sc2ncnc(N3CCC(C)CC3)c12 returned CapD inh -0.8.
`COc1ccc(C2C(C(=O)Nc3ccc(OC)c(OC)c3)c3ccccc3C(=O)N2C)cc1` (configuration not stated) gave CapD inh 60.
For CC[N+](CC)=c1scc(-c2ccc(Cl)cc2)s1 the results were CapD inh -1.4 and AID504770 -0.95.
For NS(=O)(=O)c1ccc(CCNC(=O)CSc2nc3ccccc3c(=O)n2-c2ccc3c(c2)OCO3)cc1 the results were CapD inh -0.81 and AID504770 -0.95.
CCC(=O)OC1=C(C)C2C3C(=O)N(c4ccccc4F)C(=O)C3C1(C)C1C(=O)N(c3ccccc3F)C(=O)C21 (configuration not stated) was read as CapD inh -0.015.
`CCOC(=O)c1cc2c(c(CSc3cccc(C(F)(F)F)c3)c1)OCOC2` gave CapD inh 0.28 and AID504770 -0.5.

3 structures from above, ordered by formula weight, rising:
For CC[N+](CC)=c1scc(-c2ccc(Cl)cc2)s1 the results were CapD inh -1.4 and AID504770 -0.95.
O=C(NC1CCCCC1O)c1ccccc1C(F)(F)F (configuration not stated) was read as AID504770 -1.2.
`CCOC(=O)c1cc2c(c(CSc3cccc(C(F)(F)F)c3)c1)OCOC2` gave CapD inh 0.28 and AID504770 -0.5.

Seven entries drawn at random from those above, as already listed:
`COc1ccc(C2C(C(=O)Nc3ccc(OC)c(OC)c3)c3ccccc3C(=O)N2C)cc1` (configuration not stated) gave CapD inh 60.
For CC[N+](CC)=c1scc(-c2ccc(Cl)cc2)s1 the results were CapD inh -1.4 and AID504770 -0.95.
CCNC(=O)N1CCN(C(c2ccccc2)c2nc(OC)cc(OC)n2)CC1 (configuration not stated) was read as CapD inh 0.11.
Screening CN(C)c1ccc(/C=N/NC(=O)c2cc3ccccc3s2)c2ccccc12 returned CapD inh 0.75.
O=C(NC1CCCCC1O)c1ccccc1C(F)(F)F (configuration not stated) was read as AID504770 -1.2.
For CC1(C)OC2OC(C(=O)Nc3ccc(Cl)c(Cl)c3)C3OC(C)(C)OC3C2O1 (configuration not stated) the results were CapD inh -0.56.
Screening Cc1c(C(=O)N2CCC(C)CC2)sc2ncnc(N3CCC(C)CC3)c12 returned CapD inh -0.8.

New compounds follow
For CCOC(=O)CSCCOc1ccc(C=C2C(=O)NC(=O)NC2=O)cc1OC the results were CapD inh 0.45.
For CCOc1ccc(S(=O)(=O)N2CCN(c3ccccc3F)CC2)c2cccnc12 the results were CapD inh 0.2.
Screening Cc1nc(N2CCN(C(=O)c3ccco3)CC2)[nH]c(=O)c1Cc1cccc(Cl)c1 returned AID504770 -0.6.
Screening COc1ccc(NC(=O)c2cccc(C)c2)c(OC)c1 returned CapD inh -0.065 and AID504770 -0.6.
`COc1cccc(C(=O)NCc2cn3ccccc3n2)c1` gave AID504770 -0.05.
For Cc1nn(-c2ccccc2)nc1C(=O)NC1CCS(=O)(=O)C1 (configuration not stated) the results were CapD inh 1.9 and AID504770 0.2.
`Cc1csc(C(=O)NNC(=O)OCC#Cc2ccccc2)c1-n1cccc1` gave CapD inh 0.25.
Screening c1ccc(-c2nsc(N3CCCNCC3)n2)cc1 returned CapD inh -0.005.
`CCOc1ccc(NC(=O)C2OC3OC4(CCCCC4)OC3C3OC4(CCCCC4)OC23)cc1` (configuration not stated) gave CapD inh -0.26.
`CCOc1ccc(N=C2NC(=O)C(CC(=O)NC(N)=O)S2)cc1` (configuration not stated) gave AID504770 -0.65.
`Cc1ccc(NC(=O)C(=O)NCCN2CCN(C(=O)c3cccc(Br)c3)CC2)cc1` gave CapD inh -0.03.
Screening Cc1cc(C)cc(NC(=O)c2cc(S(=O)(=O)NC3CCCCC3)ccc2F)c1 returned CapD inh -0.8.
`CCCn1c(C2CC(=O)N(c3ccccc3)C2)nc2ccccc21` (configuration not stated) gave CapD inh -0.36 and AID504770 -0.75.
Screening CN(C1CCS(=O)(=O)C1)S(=O)(=O)c1ccc(F)cc1 (configuration not stated) returned CapD inh 0.15 and AID504770 -0.6.
For O=C(NC(Cc1c[nH]c2ccccc12)C(=O)O)c1cccs1 (configuration not stated) the results were CapD inh 0.29 and AID504770 0.25.
For Cc1ccc(CN(C)CCc2ccccn2)cc1 the results were CapD inh -0.38 and AID504770 0.1.
For CCOC(=O)C1CCN(C(=O)COc2ccc(S(=O)(=O)N3CCCCC3)cc2Cl)CC1 the results were CapD inh -0.33 and AID504770 2.2.
Screening CNC(=O)c1sc(NCc2ccco2)nc1C returned AID504770 0.15.
O=[N+]([O-])c1cc(CN2CCOCC2)ccc1Sc1nc2ccccc2s1 was read as CapD inh -0.035.
For CC(Sc1nnc2n(C)c3ccccc3n12)C(=O)O (configuration not stated) the results were CapD inh -0.02 and AID504770 1.3.
Screening C=CCn1c(N2CCOCC2)nc2ccccc21 returned AID504770 0.15.
O=S(=O)(CCSCc1csc2ccccc12)c1ccc(F)cc1 was read as CapD inh -0.43 and AID504770 -0.55.
`Cc1sc(-c2ccncc2)nc1OC(=O)c1ccc(C(F)(F)F)cc1` gave CapD inh -0.4.
`COc1ccc(N2C(=O)C3ON(C4SC(=S)N(C)C4(C)C)C(c4cccc([N+](=O)[O-])c4)C3C2=O)cc1` (configuration not stated) gave CapD inh 0.58.
Screening Cc1nn(Cc2ccccc2)c2ncccc12 returned CapD inh 8.9 and AID504770 -0.75.
`Cc1cc(C)n(C(=O)CNc2cccc(Cl)c2C)n1` gave CapD inh 0.45 and AID504770 1.
For CN(C)c1ccc(C2N(Cc3ccccc3)CCN2Cc2ccccc2)cc1 the results were CapD inh -1.4 and AID504770 -0.85.
For CCOC(=O)Cn1c(-c2ccco2)nc(-c2ccccc2)c1-c1ccccc1 the results were CapD inh 50 and AID504770 -0.6.
Screening CCCCCn1c(=O)[nH]c2cc(C(=O)NC3CCC(C)CC3)ccc2c1=O (configuration not stated) returned CapD inh 1.3 and AID504770 -0.25.
For CCN(CCOC(=O)NNC(=O)c1noc(C)c1-c1csc(C)n1)c1cccc(C)c1 the results were CapD inh -0.19.
COc1ccc2c(c1)c(=O)oc1cc(OC(C)C)ccc12 was read as CapD inh 12 and AID504770 0.2.
For Cc1cc(NC(=O)C2CC(=O)OC2c2ccccc2)no1 (configuration not stated) the results were CapD inh -0.055 and AID504770 -1.1.
CC(c1cccnc1)N(C(=O)Nc1ccccc1)C1CCCCC1 (configuration not stated) was read as CapD inh 0.65 and AID504770 -0.15.
COCCOC(=O)C1=C(C)NC(C)=C(C(=O)OCCOC)C1c1ccc(-c2cccc([N+](=O)[O-])c2)o1 was read as CapD inh -0.59.
For CCN1C(=O)C2(C(C#N)=C(N)Oc3[nH]c(=O)[nH]c(=O)c32)c2ccccc21 (configuration not stated) the results were CapD inh -0.19.
`CC(=NCCN1CCNCC1)C1=C(O)CC(C)(C)CC1=O` gave AID504770 -0.85.
`CCN(CC)c1nc(Nc2ccc(Cl)cc2)nc(OCC#N)n1` gave AID504770 1.8.
`COc1c(Cl)ccc(Cl)c1C(=O)NC(=S)N1CCOCC1` gave CapD inh 0.98 and AID504770 0.2.
